# Source: PubChem (several laboratories)
# BJeLR lethal: MLPCN primary cell-based screen for lethality selective to Ras in HRASV12 cells | BJeLR (HRASV12) viability, CellTiter-Glo ATP luminescence, 48 h; reference of the scale not given here | inhibition, % (test concentration not listed) | 0.17% of 300,000 active;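 active = replicate mean above 50%; inconclusive = above 50% but judged a plate artefact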;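 also: 50 nL library stock added to about 25 µL; numbers are from one replicate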
# Mtb hypoxia rep: PubChem AID 1159583; M. tuberculosis hypoxia-regulated fluorescent reporter, fluorescence; fluorescence inhibition, % (no concentration beside the values); 0.1% of 300,000 active;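 active = 35 to 45% if threefold the growth effect, above 45% if 1.5-fold the growth effect; inactive = the rest, general growth blockers included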;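 also: wells of about 50 µL received 100 nL stock; 0% = vehicle wells and 100% = reference inhibitor wells; whole bacteria with a GFP reporter of the hypoxia response; strong numbers were not always called active; many hits fall short of the cut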
# Bead autofluor: compound fluorescence in toxin protease inhibitor counterscreen; fluorescence intensity (concentration not given with the values); AID 624483; compound autofluorescence counterscreen, microsphere flow cytometry; stronger effect = higher value; 3.1% of 360,000 active;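 active = at least 3 SD above the mean of all compounds, about 16000 in these data; inconclusive = too few beads counted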;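 also: 100 nL of 1 mM stock went into each well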
# ugtP null kill: growth inhibition of ugtP-null S. aureus, primary screen, RN4220 ugtP deletion, OD600; 0.54% of 330,000 active; AID 1259309, 2017; 16 h; some inactives read as strong as hits; growth inhibition, % (no concentration beside the values);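 active = z-score under -3 and OD600 up to 0.15 on both plates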;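 also: plate controls were untreated wells for no effect and antibiotic for full effect; wells of about 80 µL received 100 nL stock; the first replicate is given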
# PrP UTR inh: inhibition of PrP 5' UTR reporter expression | inhibition, % (concentration not given with the values) | AID 488862, 2010 | cell-based PrP 5' UTR mRNA reporter, plate reader | 0.35% of 340,000 active;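 active = every replicate at 50% or more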;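 also: 0 = median of the neutral control wells; tested in H4 reporter cells; numbers are from one replicate; inactives centre near -14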
# RN4220 kill: growth inhibition of S. aureus RN4220, primary screen, OD600 | 16 h | inhibition, % (test concentration not listed) | 0.33% of 330,000 active | AID 1259311, 2017;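 active = z-score of -3 or lower and OD600 up to 0.18 on both plates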;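 also: plate controls were untreated cells for no effect and reference antibiotic for full effect; stock transfer was 100 nL into about 80 µL; one replicate is shown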
# Mtb hypoxia rep growth: also measured in Mtb hypoxia rep; calls as there; growth inhibition, %; measured here: M. tuberculosis growth (absorbance);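 0% = vehicle and 100% = reference antibiotic; read after six days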
# Starred values were filed as active, the others as inactive; u = inconclusive; x = not tested or not shown; & = joins results of further samples.
SMILES,BJeLR lethal,Mtb hypoxia rep,Mtb hypoxia rep growth,Bead autofluor,ugtP null kill,PrP UTR inh,RN4220 kill
COc1ccc(-c2cn3cccnc3n2)cc1NC(=O)C(C)C,-3,x,x,4448,x,-3,x
CCOP(=O)(OCC)c1nc(/C=C/c2ccccc2)oc1NCc1ccccc1,8,-2,2,4335,-16,3,-1.2
O=C(c1ccc2c3c(cccc13)CC2)C1CCCN(C(=O)c2cccnc2)C1 (stereo not drawn),-1,8,10,2320,-3,-7,9.3
COc1ccccc1C(=O)Nc1sc2c(c1C#N)CCC2,-11,-3,8,3203,1,-74,2.4
Cc1nnc(Nc2ccc(Cl)c(C(F)(F)F)c2)[nH]c1=O,-1,-18,-1,4817,4,-39,6.4
COC(=O)CCC(NC(=O)OCc1ccccc1)C(=O)NC(CC(C)C)C(=O)OC (stereo not drawn),6,11,2,5543,4,-29,4.6
O=C1CCCN1c1ccc(S(=O)(=O)N2CCN(c3ccccn3)CC2)cc1,-2,3,1,15326,2,-5,0.9
COc1ccc(N(CC(=O)Nc2cccc(OC)c2)S(=O)(=O)c2c(C)nn(C)c2C)cc1,x,1,3,15810,1,1,9.8
CCOC(=O)C(=O)Nc1sc(C(=O)N2CCOCC2)c(C)c1C#N,-9,-4,-3,3583,-9,-12,-3.4
O=C(O)C1Sc2[nH]c(=O)sc2C2c3cc(Cl)ccc3OC(=O)C12 (stereo not drawn),-3,14,3,15128,4,-16,10
O=C(OCC(=O)C12CC3CC(CC(C3)C1)C2)c1cnccn1,8,0,-3,u,8,-4,3.4
CCOc1ccc2oc(C(=O)OCC(=O)NCC3CCCO3)c(C)c2c1 (stereo not drawn),x,8,-4,6455,3,-23,2.6
CN(C)CCCNC(=O)COc1ccc(Br)cc1Cl,-1,9,1,2492,4,-25,3.3
Cc1nn(-c2ccccc2)c(C)c1NC(=O)COc1cc(F)ccc1[N+](=O)[O-],x,13,3,x,-2,-39,12
Cc1cccc(NC(=O)c2cc(-c3ccco3)nc3ccccc23)n1,-3,3,12,3438,-6,-14,-10
O=C(O)C1CCCCC1C(=O)Nc1ccccc1Nc1ccccc1 (stereo not drawn),13,x,x,2585,-7,-16,3.7
CC[N+](CC)(CCO)CCCN1C(=O)C2CC=C(Cl)CC2C1=O (stereo not drawn),3,x,x,2698,7,-6,1.2
COc1ccc(/C=C(/C(=O)NCc2ccccc2)c2ccccc2)cc1,-4,4,0,2036,11,-12,3.8
CC(=O)c1c(C)[nH]c(C(=O)CSc2nc3ccc(C)cc3[nH]2)c1C,-4,19,13,3188,-15,0,1.4
COc1ccc2cc(-c3ccccc3F)ncc2c1,x,5,17,4267,28,-23,9.9
CC1CN(S(=O)(=O)c2ccc(C(=O)Nc3ccc(S(=O)(=O)Nc4nccs4)cc3)cc2)CC(C)O1 (stereo not drawn),-23,11,12,2365,6,-12,-0.4
COc1ccc(CC(=O)Nc2sc3c(c2C(N)=O)CCCC3)cc1,5,-1,7,3636,3,-12,0.4
COc1ccc(-c2noc(CN(C(=O)c3ccc4c(c3)OCO4)C(C)C)n2)cc1OC,-8,-3,-9,4155,3,4,0.3
COCCCNc1nnc(Cc2ccc(Cl)cc2)c(=O)[nH]1,40,-1,-11,3960,-4,-35,-1.2
COc1ccc(-c2c3c(cc4ncn(Cc5ccccc5)c24)COC3=O)cc1,x,5,5,2985,3,-12,9.0

# (listing goes on)
SMILES,BJeLR lethal,Mtb hypoxia rep,Mtb hypoxia rep growth,Bead autofluor,ugtP null kill,PrP UTR inh,RN4220 kill
C=CC[C@]12C[C@@H](OC)C(=O)C=C1O[C@@H](c1ccc(OC)c(OC)c1)[C@H]2C,-3,x,x,5759,-4,-13,1.8
CCS(=O)(=O)c1ccc(C(=O)Nc2ccccc2OC)c(Cl)c1Cl,-2,13,7,4119,9,2,11
O=C(CCS(=O)(=O)c1ccccc1)Nc1ccccn1,4,10,0,5717,-8,-19,3.0
COc1ccc(C(=O)CCS(=O)(=O)c2ccc(F)cc2)cc1OC,13,x,x,4377,x,-4,x
c1cnc2ccc(-c3ccc4ncccc4c3)cc2c1,2,8,8,x,7,-39,9.6
CCCNC(=O)c1onc(CS(=O)(=O)c2cc(C)cc(C)c2)c1C(=O)NCCC,x,-4,7,3703,-3,-49,-0.1
Cc1cccc(OCCOC(=O)c2ccc(F)c(S(=O)(=O)N3CCOCC3)c2)c1,x,12,7,x,1,-5,3.2
COc1cc(/C=N/O)ccc1OCc1ccc(C(=O)O)cc1,14,x,x,3951,x,88*,x
CCN=C1S/C(=C\c2cn(C(C)=O)nc2-c2ccccc2)C(=O)N1CC,-8,6,12,9588,-11,-8,-0.8
CCOC(=O)c1nn(-c2ccccc2)c2nnc(Cc3ccc(Cl)cc3)c(=O)n12,-16,1,8,2408,-1,-60,3.3
COCCN1Cc2cccc(C(=O)Nc3cccc(OC)c3)c2C1=O,10,12,7,3649,1,-17,1.2
COc1ccc(/C=C/C(=O)O)cc1O,4,x,x,4096,-1,0,0.2
CC(C)c1ccc(CN(C(=O)c2cccs2)C2CCS(=O)(=O)C2)cc1 (stereo not drawn),11,4,-8,5616,12,2,1.3
CCN(CCCNC(=O)CCc1nc(-c2ccc(OC)cc2)no1)c1cccc(C)c1,-1,x,x,3251,-4,-3,3.3
Cc1ccc(CCNC(=O)C2CCC(=O)N(Cc3cccc(F)c3)C2)cc1 (stereo not drawn),-7,8,2,5147,-1,-8,1.3
CC(NC(=O)c1nc[nH]c1C(=O)NC(C)c1ccccc1)c1ccccc1 (stereo not drawn),x,6&14&2,5&12&5,x,-4&8&-32,x,4.6&5.1&-1.4
O=C(CSc1ccc(Cl)cc1)Nc1cc(-c2nc3ncccc3o2)ccc1Cl,15,-9,-4,x,-1,x,3.7
CC1CC(C)CN(S(=O)(=O)c2ccc3c(c2)CC(=O)N3)C1 (stereo not drawn),x,13,1,x,4,x,6.6
S=C(NCc1ccc2c(c1)OCO2)Nc1ccc2nsnc2c1,1,-1,9,4433,-8,-26,-1.9
Cc1cc(/C=C2\SC(=O)N(C)C2=O)c(C)n1-c1ccc(O)cc1,-3,3,-8,4858,12,29,3.9
CNC(=O)c1nn(-c2ccc(C)cc2)ccc1=O,-15,x,x,2354,-3,-7,1.4
CCOC(=O)C1=C(C)NC(=O)NC1c1ccc(OCC(=O)OC)c(OC)c1 (stereo not drawn),-5,8,10,2561,5,1,5.1
Cc1ccc(-c2cc3nc(C)cc(C)n3n2)cc1,4,-7,9,2471,11,-75,7.2
CCCCCCC/C(C)=N/NC(=O)CC(=O)NCCc1ccccc1,-9,x,x,3373,x,-17,x
Cc1cc(C(=O)CNCc2ccco2)c(C)n1-c1ccc(F)cc1,1,-6,-9,8550,2,-73,4.8

# The list goes on:
SMILES,BJeLR lethal,Mtb hypoxia rep,Mtb hypoxia rep growth,Bead autofluor,ugtP null kill,PrP UTR inh,RN4220 kill
COCc1nc2ccccc2n1Cc1ccc(Br)cc1,-4,7,8,2323,-2,-27,2.0
Cc1ccc(/C=N/Nc2nncc(-c3ccccc3)n2)o1,1,x,x,3565,x,-47,x
NC(=O)c1ccc(NC(=O)CS(=O)(=O)c2cn(CC(=O)N3CCCCC3)c3ccccc23)cc1,2,1,-3,4833,4,-12,3.6
COc1ccc(S(=O)(=O)N(C)CC(=O)N2CCN(Cc3ccccc3)CC2)cc1C,-5,3,9,9876,4,-7,1.6
CC(C)NC(=O)c1ccc(-c2ccccc2C(F)(F)F)o1,-3,2,2,8739,-2,-66,6.5
C/C(=N\NC(=O)NC1CCCCC1)C1CCCCC1,4,x,x,2337,x,6,x
OCCC1CN(Cc2cccc3c2OCO3)CCN1C1CCCCC1 (stereo not drawn),3,0,-1,1989,4,-14,0.7
COc1cccc(C=NNC(=O)CNC(=O)c2ccncc2)c1O,x,2,-6,x,-2,x,2.3
COc1ccccc1OCCNC(=O)C(CCSC)NC(=O)COc1ccccc1 (stereo not drawn),x,-7,2,3377,3,-15,2.2
CCc1cccc(NC(=O)CSCc2cc(=O)[nH][nH]2)c1,-10,-3,4,11617,-5,-20,0.8
Cc1cc2oc(=O)cc(C)c2cc1NC(=O)CCC(=O)O,0,-1,13,7914,8,-6,1.8
Cn1cc(S(=O)(=O)N2CCN(c3cccc(Cl)c3)CC2)c(=O)n(C)c1=O,-4,12,0,4418,-2,-4,1.0
Cc1ccc(S(=O)(=O)N2CCCC(C(=O)NCC3COCCO3)C2)cc1 (stereo not drawn),6,0,7,3264,-5,3,0.9
CCN(CC)C(=O)c1[nH]cnc1C(=O)N[C@@H](Cc1ccccc1)C(=O)OCc1ccccc1,8,x,x,3536,x,-23,x
CCCCN(C(=O)/C=C/c1ccccc1)C1CCS(=O)(=O)C1 (stereo not drawn),8,0,4,u,2,-28,1.7
CC(NC(=O)c1ccc(Br)cc1Br)c1ccccc1 (stereo not drawn),6,x,x,3928,x,-28,x
CC1=C(C)C(=O)N(c2ccc(C(=O)O)cc2)C1=O,-1,3,8,2899,-3,-21,3.4
Cc1c(C(=O)N2CCCCCC2)c(S(=O)(=O)Nc2ccc(F)cc2)c(C)n1C,-10,19,4,6134,2,-18,3.6
CC(C)N1C(=O)c2ccccc2N(Cc2ccccc2)S1(=O)=O,8,3,-2,4578,6,9,8.7
Cc1cccc(OCC(=O)NC(=S)Nc2ccccc2N2CCOCC2)c1,7,9,11,2271,10,-15,-2.0
Cc1nnc(SC(C)C(=O)N2CCc3ccccc32)s1 (stereo not drawn),-5,x,x,2664,-6,-20,-0.5
Cc1cc(C)cc(-n2ncc3c2CCCC3NC(=O)CN2CCCCC2=O)c1 (stereo not drawn),-4,10,1,6473,5,-8,2.8
CC(C)(C)c1ccc(C(=O)N/N=C/c2ccccn2)cc1,9,x,x,3414,x,-2,x
C[C@H](NC(=O)c1nc[nH]c1C(=O)N[C@@H](Cc1ccccc1)C(=O)OC(C)(C)C)c1ccccc1,5,x,x,3970,x,-34,x
O=C(NCc1ccco1)C1Cc2ccccc2CN1S(=O)(=O)c1ccccc1F (stereo not drawn),x,-2,4,23284*,-4,-17,5.1

# Quoted at random: 3 compounds from above.
SMILES,BJeLR lethal,Mtb hypoxia rep,Mtb hypoxia rep growth,Bead autofluor,ugtP null kill,PrP UTR inh,RN4220 kill
CC(NC(=O)c1ccc(Br)cc1Br)c1ccccc1 (stereo not drawn),6,x,x,3928,x,-28,x
COc1cccc(C=NNC(=O)CNC(=O)c2ccncc2)c1O,x,2,-6,x,-2,x,2.3
Cc1ccc(/C=N/Nc2nncc(-c3ccccc3)n2)o1,1,x,x,3565,x,-47,x

# One compound at a time, as listed above:
# COCc1nc2ccccc2n1Cc1ccc(Br)cc1 reads BJeLR lethal: -4; Mtb hypoxia rep: 7; Mtb hypoxia rep growth: 8; Bead autofluor: 2323; ugtP null kill: -2; PrP UTR inh: -27; RN4220 kill: 2.0
# C/C(=N\NC(=O)NC1CCCCC1)C1CCCCC1 reads BJeLR lethal: 4; Mtb hypoxia rep: x; Mtb hypoxia rep growth: x; Bead autofluor: 2337; ugtP null kill: x; PrP UTR inh: 6; RN4220 kill: x

# New compounds follow.
SMILES,BJeLR lethal,Mtb hypoxia rep,Mtb hypoxia rep growth,Bead autofluor,ugtP null kill,PrP UTR inh,RN4220 kill
COc1ccc(CN(C)CC(=O)c2c(N)n(Cc3ccccc3)c(=O)n(C)c2=O)c(OC)c1,2,5,-1,8828,14,-16,4.3
CCCOc1ccc(CC(=O)NCc2ccco2)cc1OC,1,x,x,4248,4,-17,0.7
O=C(c1cc[n+]([O-])cc1)N1CCc2c([nH]c3ccccc23)C1c1ccccc1Cl (stereo not drawn),-4,5,6,4919,6,-14,5.9
CC(C)=CC(=O)OCC(=O)Nc1ccc(Cl)cc1,1,11,4,3696,6,-16,1.9
CCCN1C(=O)C(=O)N(CC(=O)c2cc(C)n(C3CC3)c2C)C1=O,x,8,49,3827,1,-45,3.2
COC(=O)c1ccc(CN2CCC(Oc3cccc(C(=O)N4CCOCC4)c3)CC2)cc1,3,0,-2,4444,4,-11,-0.2
COc1ccc(NC(=O)c2c(C(F)(F)F)nn(C)c2SCc2ccccc2)cc1,-1,2,-3,16890*,9,-17,3.2
COc1ccc(SCC(C)CN2CCC(C)CCC2=O)cc1 (stereo not drawn),x,17,8,x,4,x,8.8
O=C1C/C(=C/NCc2ccccc2)C(=O)N1,x,x,x,4964,11,1,2.0
NCCNc1ccc2nnnn2n1,x,-2,-11,4161,6,-6,14

# Rows were taken by chance; overall some 4% were active at least once.
